# Source: PubChem BioAssay
# PglD inh = C. jejuni PglD acetyltransferase inhibitors, primary screen, biochemical, DTNB colorimetric, single point | UDP-N-acetylbacillosamine N-acetyltransferase PglD (Campylobacter jejuni) | purified PglD enzyme, DTNB colorimetric CoA detection | inhibition, % at 12.5 µM | actives 0.098% (n = 360,000); in the data active = inhibition above about 16%, passing the limit was not always enough; note: strong numbers were not always called active
# INS-1E GSIS act = GLuc luminescence reporter in INS-1E cells, primary screen for activators of glucose-dependent secretion of insulin; activation, % at 16.6 µM; INS-1E GLuc reporter insulin secretion, 2-3 h; actives 0.61% (n = 370,000); AID 743287, 2014;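 active = lowest replicate activation of at least 40%, so every replicate reaches that level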;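 note: 0% = median of neutral control wells and 100% = median of IBMX positive control wells; some compounds called inactive have numbers as strong as hits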
# PGC1a acetyl inh = inhibitors of PGC1a acetylation signal, primary screen, cell-based, U2OS, AlphaScreen, inhibitor mode. AlphaScreen anti-acetyl-lysine; with virally co-expressed GCN5 acetyltransferase. AID 651687, 2012. inhibition, % at 15.6 µM. actives 0.17% (n = 350,000);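 active = every replicate shows inhibition of at least 40%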;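 note: 0% = neutral control wells and 100% = positive control wells; some results beyond the cut were filed as inactive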
# Cneo AK release = Cryptococcus neoformans cell lysis inducers, primary screen, AK release luminescence, single concentration. C. neoformans lysis, adenylate kinase release luminescence, 4 h; normalised: neutral wells 0, clomiphene wells 100. lysis activity, % at 15 µM. actives 0.2% (n = 360,000);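 active = mean lysis activity across replicates of at least 80%, whatever share of replicates individually reach that level; inactive = mean lysis activity below 80%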
#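 Test system: log-phase Cryptococcus neoformans yeast cells; Quantity: yeast cell density of 5 × 10^6 cells/mL; Buffer or medium: YPD; Doses: single compound concentration per well; Timing: 4 h at 37 °C static, read 1 h later; Measured by: AK luminescence; Read-out basis: lysis from increased AK signal; Control set: Clomiphene as positive control.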
# * marks the source's active call; other numbers are inactive results; / = no result given; & = joins results of further samples.
# Key to letters – A = PglD inh; B = INS-1E GSIS act; C = PGC1a acetyl inh; D = Cneo AK release
1) CS(=O)(=O)c1ccc([C@@H](O)[C@@H](CF)NC(=O)C(Cl)Cl)cc1
  A: -1.9; B: 3.1; C: 7.4; D: 0.6

2) N#Cc1ccc(OCCCN2CCC(C(O)(c3ccccc3)c3ccccc3)CC2)cc1
  A: /; B: -49.8; C: /; D: /

3) COc1ccc(C[C@H](C)NC[C@@H](O)c2ccc(O)c(NC=O)c2)cc1
  A: -7.0; B: 3.3; C: /; D: -1.7

4) C[C@H](CS)C(=O)N1CCC[C@H]1C(=O)O
  A: 1.4; B: /; C: 1.0; D: -0.6

5) CN1[C@@H]2CC[C@H]1CC(OC(=O)C(CO)c1ccccc1)C2 (stereo not given in full)
  A: -5.6; B: /; C: -2.6; D: 0.2

6) O=C(O)C1CCN(S(=O)(=O)/C=C/c2ccccc2)CC1
  A: 4.5; B: -0.6; C: -7.7; D: -10.4

7) CC(C)(C(=O)O)c1ccc([C@H](O)CCCN2CCC(C(O)(c3ccccc3)c3ccccc3)CC2)cc1
  A: -0.8; B: -12.8; C: 0.2; D: 0.0

8) CN1[C@@H]2CC[C@H]1CC(OC(=O)[C@H](CO)c1ccccc1)C2 (stereo not given in full)
  A: -1.8; B: /; C: 8.6; D: -1.8

9) Cc1ccccc1Nc1nc(N)nc(C)c1Br
  A: -8.7; B: 9.5; C: -9.5; D: -1.6

10) CN(C)CCCN1c2ccccc2CCc2ccccc21
  A: 2.4; B: /; C: -10.6; D: 0.9

11) CC(C)(C)NC(=O)[C@@H]1C[C@@H]2CCCC[C@@H]2CN1C[C@@H](O)[C@H](Cc1ccccc1)NC(=O)[C@H](CC(N)=O)NC(=O)c1ccc2ccccc2n1
  A: -3.3&-4.4; B: /; C: 2.7&-5.3; D: -1.3&0.8

12) CCCCNc1ccc(C(=O)O)cc1
  A: -11.1; B: 31.7; C: -3.0; D: -1.1

13) COc1ccccc1C(=O)NNC(=S)NC(=O)c1ccco1
  A: /; B: -12.9; C: /; D: /

14) Cc1cc(NS(=O)(=O)c2ccc(N)cc2)no1
  A: 0.6; B: 1.4; C: 6.7; D: -3.0

15) Cc1ccccc1C(=O)N/N=C/c1ccc(Sc2ccccn2)o1
  A: /; B: 4.4; C: /; D: /

16) COc1ccc2cc([C@@H](C)C(=O)O)ccc2c1
  A: -4.2; B: /; C: /; D: -0.3

17) CCOC(=O)N1CCC(=C2c3ccc(Cl)cc3CCc3cccnc32)CC1
  A: 0.0; B: 19.3; C: -7.2; D: -0.3

18) COc1ccc(Cn2cc(C(=O)O)c(=O)c3ccccc32)cc1
  A: /; B: -14.3; C: -1.6; D: /

# A draw from above in order of number of heavy atoms, smallest number first:
# Key to letters – A = PglD inh; B = INS-1E GSIS act; C = PGC1a acetyl inh; D = Cneo AK release
4) C[C@H](CS)C(=O)N1CCC[C@H]1C(=O)O
  A: 1.4; B: /; C: 1.0; D: -0.6

15) Cc1ccccc1C(=O)N/N=C/c1ccc(Sc2ccccn2)o1
  A: /; B: 4.4; C: /; D: /

17) CCOC(=O)N1CCC(=C2c3ccc(Cl)cc3CCc3cccnc32)CC1
  A: 0.0; B: 19.3; C: -7.2; D: -0.3

# Quoted at random: 7 compounds from above.
# Key to letters – A = PglD inh; B = INS-1E GSIS act; C = PGC1a acetyl inh; D = Cneo AK release
6) O=C(O)C1CCN(S(=O)(=O)/C=C/c2ccccc2)CC1
  A: 4.5; B: -0.6; C: -7.7; D: -10.4

17) CCOC(=O)N1CCC(=C2c3ccc(Cl)cc3CCc3cccnc32)CC1
  A: 0.0; B: 19.3; C: -7.2; D: -0.3

3) COc1ccc(C[C@H](C)NC[C@@H](O)c2ccc(O)c(NC=O)c2)cc1
  A: -7.0; B: 3.3; C: /; D: -1.7

12) CCCCNc1ccc(C(=O)O)cc1
  A: -11.1; B: 31.7; C: -3.0; D: -1.1

7) CC(C)(C(=O)O)c1ccc([C@H](O)CCCN2CCC(C(O)(c3ccccc3)c3ccccc3)CC2)cc1
  A: -0.8; B: -12.8; C: 0.2; D: 0.0

4) C[C@H](CS)C(=O)N1CCC[C@H]1C(=O)O
  A: 1.4; B: /; C: 1.0; D: -0.6

15) Cc1ccccc1C(=O)N/N=C/c1ccc(Sc2ccccn2)o1
  A: /; B: 4.4; C: /; D: /

# An excerpt, so the mix of outcomes need not match the whole.
